# LANA-H2A inh: blockers of LANA interaction with H2A/H2B – biochemical, FP readout, HTS, primary screen; AID 2629, 2010; Protein LANA1 (Human herpesvirus 8 type P (isolate GK18)), Q9QR71; inhibition, % (no concentration beside the values); actives 0.6% (n = 320,000); cell-free LANA-H2A/H2B peptide, fluorescence polarization; in the data active means inhibition mostly above about 10%, no sharp cut-off; inactive means mostly below about 6.7%;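 further: stock transfer was 7.5 nL into about 10 µL; 0% = median of vehicle wells and 100% = median of positive control wells; one replicate is shown; the record names a cut of 25% in any replicate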
# RanGTP-Impb inh: inhibitors of RanGTP-importin-beta interaction, primary screen, biochemical, FRET, CFP-Ran, YFP-importin-beta, homogeneous | cell-free CFP-Ran/YFP-importin-beta FRET ratio | inhibition, % (no concentration beside the values) | actives 1.1% (n = 300,000);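 active means most replicates above 15%; inconclusive means exactly half above 15%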;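 further: 0% = DMSO wells and 100% = Ran loaded with GDP instead of GTP; wells of about 40 µL received 100 nL stock; the first replicate is given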
# Calb FLC: C. albicans growth inhibition with fluconazole, primary screen, CaCi-2 strain, Alamar Blue fluorescence. growth inhibition, % (concentration not given with the values). actives 0.57% (n = 300,000). C. albicans CaCi-2 (fluconazole-resistant clinical isolate) + fluconazole, 48 h;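 active means most replicates above 75%; inconclusive means exactly half above 75%; inactive means most below 75%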;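 further: all wells also contain fluconazole at 8 µg/ml as a sub-toxic cotreatment; 0% = median of DMSO wells and 100% = median of geldanamycin control wells; wells of about 8 µL received 7.5 nL stock; the first replicate is given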
# UCH37 DUB inh: inhibitors of human UCH37 deubiquitinase, primary screen, biochemical, Ub-AMC cleavage, fluorescence | Ubiquitin carboxyl-terminal hydrolase isozyme L5 (Homo sapiens), Q9Y5K5 | purified proteasome/UCH37 | inhibition, % (test concentration not listed) | actives 0.33% (n = 330,000);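 active means mean of two replicates above 20%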;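 further: 0% = compound-free wells with enzyme and 100% = wells lacking proteasome; stock transfer was 100 nL into about 20 µL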
# Target sequence (Q9Y5K5 whole entry, looked up): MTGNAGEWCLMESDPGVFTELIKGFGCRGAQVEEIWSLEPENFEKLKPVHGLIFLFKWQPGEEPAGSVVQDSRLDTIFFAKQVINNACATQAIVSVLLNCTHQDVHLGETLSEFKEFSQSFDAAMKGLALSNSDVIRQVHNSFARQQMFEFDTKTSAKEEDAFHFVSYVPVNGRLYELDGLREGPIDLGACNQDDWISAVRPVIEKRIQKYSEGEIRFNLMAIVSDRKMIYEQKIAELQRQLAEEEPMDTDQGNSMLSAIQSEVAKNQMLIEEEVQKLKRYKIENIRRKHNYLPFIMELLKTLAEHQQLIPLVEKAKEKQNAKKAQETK
#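 Assay system: Proteasome-bound UCH37. Buffer or medium: pH 7.4 Tris-HCl (50 mM) with ovalbumin, ATP-MgCl2, DTT. Incubation: 30 min preincubation with enzyme, 25 min cleavage at room temperature. Measured by: fluorescence, ex 355 nm, em 460 nm. Read-out basis: percent inhibition. Control set: wells without proteasome as full block, compound-free enzyme plus substrate as uninhibited.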
# B2AR ag: beta2AR agonists driving receptor internalization, primary screen, cell-based, FAP fluorogen, flow cytometry; Am2.2-beta2AR cells; reference of the scale not given here; actives 0.43% (n = 340,000); response, % (concentration not given with the values); Beta-2 adrenergic receptor (Homo sapiens), P07550; AID 504454, 2011;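 active means response above a set limit, near 3 SD of response in nonfluorescent compounds, cut at about 42% in these data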;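 further: stock transfer was 100 nL into about 11 µL; a reference agonist was the positive control; negative values mostly stem from fluorescent compounds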
# Target sequence (P07550 whole entry, looked up): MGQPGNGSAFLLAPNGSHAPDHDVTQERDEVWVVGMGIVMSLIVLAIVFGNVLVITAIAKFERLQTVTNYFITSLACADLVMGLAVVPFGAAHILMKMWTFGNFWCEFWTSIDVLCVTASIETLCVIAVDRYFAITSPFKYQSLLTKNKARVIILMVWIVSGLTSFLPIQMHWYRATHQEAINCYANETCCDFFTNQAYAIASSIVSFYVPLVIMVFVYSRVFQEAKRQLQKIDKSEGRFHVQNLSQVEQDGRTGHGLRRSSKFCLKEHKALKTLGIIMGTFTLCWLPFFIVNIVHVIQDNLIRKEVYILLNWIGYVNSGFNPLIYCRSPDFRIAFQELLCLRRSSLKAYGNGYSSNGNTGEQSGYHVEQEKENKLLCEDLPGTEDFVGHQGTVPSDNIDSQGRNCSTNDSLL
# Beta cell apopt: inhibitors of cytokine-induced beta cell apoptosis, primary screen, luminescence; actives 0.8% (n = 300,000); protection from apoptosis, % (no concentration beside the values); INS-1E cytokine-induced death, ATP luminescence, 48 h; percent of positive-control rescue, neutral wells zero; AID 435005, 2010;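 active means all replicates at 75% or more, or half of them and the mean; inconclusive means half reach 75% but not the mean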;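 further: 0% = cytokine-treated negative control wells and 100% = positive control rescue; higher means more ATP so stronger rescue from cytokine killing; wells of about 40 µL received 100 nL stock; the first replicate is given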
# T cruzi repl: inhibitors of intracellular T. cruzi growth, primary screen, luminescence, NIH3T3 host cells; T. cruzi beta-gal in NIH3T3, 90 h; inhibition, % (concentration not given with the values); actives 1.4% (n = 300,000); AID 1885, 2009;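 active means mean inhibition across valid replicates above about 55%, limit read from the data; inconclusive means mean below that limit but half or more replicates reach it; inactive means mean below it, under half of replicates reach it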;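 further: signal also drops with host cell toxicity which is not excluded here; 0% = plate median of DMSO wells and 100% = zero luminescence signal; higher percent means less beta-gal luminescence so fewer parasites; stock transfer was 50 nL into about 50 µL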
# A1 inh: caspase 3/7 activation in MEF A1-2A-BIM cells, primary screen, A1 inhibitor project, cell-based, luminescence, HTS; actives 0.066% (n = 330,000); caspase activation, % (test concentration not listed); Caspase-Glo 3/7 luminescence, 3 h; percent of clofoctol response, vehicle zero;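 active means over half of replicate activation scores above 10%, or exactly half above 10 with the replicate mean above 10; inconclusive means replicate mean below 10 yet half the replicates above 10; inactive means over half of replicates below 10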;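 further: wells of about 30 µL received 50 nL stock; many hits fall short of the cut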
# Active calls of the source: *; i = inactive; ? = inconclusive; . = not tested or not shown.
SMILES,LANA-H2A inh,RanGTP-Impb inh,Calb FLC,UCH37 DUB inh,B2AR ag,Beta cell apopt,T cruzi repl,A1 inh
Cc1ccc(OCCC(=O)N(Cc2ccccc2)c2c(N)n(Cc3ccccc3)c(=O)[nH]c2=O)cc1,-3.4,0.7,-2,.,-4,2,0,-0.1
COc1cc(CN2CCCC(CO)(Cc3ccccc3C)C2)cc2c1OCO2 (configuration not stated),9.7,1.7,-2,3.1,7,11,43,-0.2
N#Cc1cccc(CN2C=NS(=O)(=O)c3ccccc32)c1,1.6,-1.0,-1,0.5,3,.,-10,-0.1
Cc1noc(C)c1CSCC(=O)Nc1ccc(S(C)(=O)=O)cc1,.,.,.,1.8,7,-4,.,0.0
Cc1nc(N(C)C)c2sc(=S)n(C)c2n1,3.5,1.8,-4,3.2,2,-3,-13,-0.1
CCOc1ccc(S(=O)(=O)N2CCOCC2)cc1NC(=O)C1CCC1,6.8,0.0,9,3.9,-8,-5,0,2.1
CCOC(=O)C1=C(C)NC(=O)NC1C(C)C (configuration not stated),3.8,-2.4,2,-0.3,1,3,-19,-0.4
c1ccc2c(-c3nc(C4CCCCC4)no3)cc(-c3ccncc3)nc2c1,-9.0,4.7,-5,-7.2,3,3,52,-0.3
CCc1ccc(N2C(=O)CC(NNc3nc4ccccc4s3)C2=O)cc1 (configuration not stated),-5.2,1.4,3,.,0,-2,-1,-0.9
Cc1onc(-c2ccccc2Cl)c1C(=O)Nc1cccc(-c2nc3ncccn3c2C)c1,10,5.6,3,i,17,.,-4,-0.7
COc1ccc2nc(C)cc(NCc3ccc(F)cc3)c2c1,-31,-12,-1,.,-402,10,46,0.5
NNC(=O)c1ccccc1OCc1ccccc1,0.3,1.4,7,2.8,2,-3,27,-0.7
COc1ccc2oc(C(=O)NNC(=O)c3ccc(F)cc3)c(C)c2c1,-2.2,1.5,5,-32,0,2,16,0.1
Cc1cc(C)nc(SCCC(=O)Nc2ccccc2)n1,2.1,0.5,-12,3.4,1,-4,-18,-0.2
O=C1CCCN1C(=O)CCC(=O)N1CCCC1=O,-0.7,0.4,-1,1.0,-4,-3,-10,-0.3
CCOC(=O)c1c(C)[nH]c(C)c1C(=O)COC(=O)C1CCCN1S(=O)(=O)c1ccccc1F (configuration not stated),-7.4,1.9,1,1.6,-6,-4,-2,-1.3
COc1ccc(CNc2nc3ccc(C)cc3s2)c(OC)c1OC,-0.7,-0.5,3,2.4,0,5,7,-0.3
COc1cc(C(=O)NCC(=O)Nc2c(C)cccc2C)ccc1OCC(=O)N1CCOCC1,2.1,.,.,0.5,3,-4,.,-1.5
CCc1c(C)nc2[nH]nc(-c3ccccc3C)n2c1=O,-2.4,-6.2,0,-5.0,-1,1,-6,-1.2
CCC12CC3CC(C1)CC(C(=O)O)(C3)C2,1.5,-3.0,-2,4.8,4,.,1,-0.4
CC1CN(C(=S)NC(=O)c2ccc(Cl)cc2)CC(C)O1 (configuration not stated),-0.2,0.4,8,4.1,0,-3,-8,0.2
CCCCCCCC(=O)N/N=C/c1ccc(Br)cc1,-0.2,.,6,.,-1,-8,7,0.6
O=C(NCc1cccnc1)C(=O)Nc1ccc2c(c1)OCO2,2.2,-1.8,-13,4.7,4,-1,-8,-0.5
NC(=NCCc1ccc(Cl)cc1)NS(=O)(=O)c1ccc(F)cc1,1.6,-1.8,-12,3.6,8,-12,-18,?
COc1ccc(C(=O)N=C2CCC(C#N)=C3c4cc(OC)c(OC)cc4CCN23)cc1,-8.8,1.0,-3,3.4,0,-2,-8,-0.5
O=C1CS/C(=N\C(=O)N2c3ccccc3Sc3ccccc32)N1,1.9,-1.2,95*,3.5,2,-10,3,0.1
NCCSc1c(-c2ccccc2)[nH]c2ccccc12,2.3,-0.1,7,-11,-9,0,17,0.3
CC(=O)c1cccc(NC(=O)CSc2nc(=O)n(CCN3CCOCC3)c3c2CCCC3)c1,1.7,-1.5,-4,5.8,-5,0,8,-0.3
Cc1ccc(C(=O)NNC(=O)c2ccc(NC(=O)C(C)(C)C)cc2)cc1,-2.0,1.8,-7,-0.8,1,-2,-11,-0.7
CCN(CC(=O)Nc1c(F)cccc1F)C(=O)CNC(=O)c1ccco1,-4.2,1.3,.,3.6,-3,-1,-8,0.8
COCCn1c(SCC(=O)Nc2ccccc2)nc2c(oc3ccccc32)c1=O,-12,.,.,0.3,-5,-12,7,0.1
CCN(CC)C(=O)CSc1nnc2sc3ccccc3n12,1.9,5.5,22,4.9,-18,-7,7,0.7
COc1cccc(NC(=O)NCC2CCN(Cc3ccc(F)cc3)CC2)c1,4.8,1.8,15,3.9,-1,-2,37,0.7
CS(=O)(=O)c1ccc(N)cc1,-0.4,0.4,1,7.3,-10,.,3,-0.5
CS(=O)(=O)N(CC(=O)NCC1CCCO1)c1cc(Cl)cc(Cl)c1 (configuration not stated),-25,1.7,9,1.2,-3,-3,-16,0.2
O=c1oc2ccc(Br)cc2cc1S(=O)(=O)c1ccc(F)cc1,-3.1,-1.1,-8,4.0,-11,-15,-10,0.9
CCN(CC)CCNC(=S)Nc1ccc2nc(N3CCN(C)CC3)cc(C)c2c1,0.1,1.4,-11,-12,9,-15,43,-0.5
N#CCCn1cc(/C=N/NC(N)=S)c(-c2ccccc2)n1,-0.8,1.7,-7,.,1,2,-10,-0.3
Cc1cccn2c(=O)c(C(=O)NC3CC(C)CC(C)(C)C3)c(O)nc12 (configuration not stated),-5.7,-2.7,-6,-54,-2,18,10,?
CCOC(=O)c1ccc(NC(=O)N2CCN(Cc3cccc(F)c3)CC2)cc1,5.0,6.1,0,4.9,-4,2,18,0.0
COc1ccc(CCNC(=O)C2CCC(=O)N2CCc2ccccc2)cc1OC (configuration not stated),.,-2.1,2,4.5,-10,.,-14,.
O=C(NNc1nc(-c2ccc(Cl)cc2)cs1)c1ccco1,-1.5,-2.8,-6,0.4,-4,4,14,0.5
COc1ccc(CCN2C(=O)/C(=C\c3ccco3)SC2=S)cc1OC,.,-1.4,5,1.9,-7,.,21,.
O=C(O)C1C(c2ccccc2)C(C(=O)OCCCO)C1c1ccccc1 (configuration not stated),-1.7,0.6,12,1.2,7,-2,-2,-0.9
CCCNC(=O)C(Cc1ccccc1)NC(=O)c1cccc([N+](=O)[O-])c1 (configuration not stated),-3.6,.,.,-4.7,-1,-9,.,-1.4
O=C(NCc1cccs1)c1cnc2ccccn2c1=O,9.8*,3.0,5,-37,-1,-2,-23,0.5
COc1cc(CC(=O)OCC(=O)N2CC(=O)Nc3ccccc32)cc(OC)c1OC,-2.4,0.7,9,-0.4,2,-1,-2,-0.3
CCCn1ncc(CN2CCC(N3CCC(C(=O)N4CCOCC4)CC3)CC2)c1C,-1.2,6.2,-6,3.7,3,-3,4,-0.4
CCOC(=O)c1ccc(NC(=O)N2CCN(Cc3ccccc3)CC2)cc1,-5.2,-0.7,-2,5.5,-12,-2,-13,0.9
COc1cc(C2CC(=O)N(c3ccc(C)cc3)C(=O)C2)cc(OC)c1OC,-1.6,2.9,-1,0.0,-1,7,-5,0.3

# Compound profiles, from the list above. Values in the order: LANA-H2A inh	RanGTP-Impb inh	Calb FLC	UCH37 DUB inh	B2AR ag	Beta cell apopt	T cruzi repl	A1 inh
# O=C(NCc1cccs1)c1cnc2ccccn2c1=O in the list: 9.8*	3.0	5	-37	-1	-2	-23	0.5
# CCCNC(=O)C(Cc1ccccc1)NC(=O)c1cccc([N+](=O)[O-])c1 (configuration not stated) in the list: -3.6	.	.	-4.7	-1	-9	.	-1.4

# The listing continues:
SMILES,LANA-H2A inh,RanGTP-Impb inh,Calb FLC,UCH37 DUB inh,B2AR ag,Beta cell apopt,T cruzi repl,A1 inh
O=C1COc2ccc(S(=O)(=O)Nc3ccc4c(c3)OCO4)cc2N1,2.5,2.0,-12,-0.1,4,1,-13,1.2
COc1ccc(-c2nn3c(-c4ccco4)nnc3s2)cc1OC,-6.0,-0.4,6,1.2,-10,2,11,-1.1
COCc1cc(C)nc(SCc2ccc(F)cc2)c1C#N,-1.5,-0.1,3,0.2,-8,0,-4,0.1
CCCCCCOC(=O)C(C#N)c1nc2ccccc2nc1N1CCN(C)CC1 (configuration not stated),2.4,23*,11,-6.4,-7,46,68*,-0.4
CCOC(=O)C(C(=O)OCC)C(Nc1ccccc1)c1ccccc1 (configuration not stated),-3.0,1.1,0,3.0,3,.,-26,0.5
O=C(COC(=O)c1ccc(F)c(S(=O)(=O)N2CCOCC2)c1)NCc1ccc(F)cc1,-2.1,.,.,1.4,0,-4,.,-0.4
Cc1nonc1CC(=O)NC1CCCc2c1cnn2-c1ccc(F)cc1F (configuration not stated),.,-1.2,-5,.,3,.,-2,.
CCOc1ccccc1NC(=O)C1COc2ccccc2O1 (configuration not stated),-3.0,3.3,6,2.3,2,12,0,-2.3
CCCNS(=O)(=O)c1ccc(CCC(=O)N2CCN(CC)CC2)cc1,-0.5,-0.6,1,1.1,1,-8,31,1.1
COc1ccccc1N1CCN(c2nc(-c3ccccc3)cc(C(F)(F)F)n2)CC1,5.9,?,-4,0.6,15,12,22,0.6
CCS(=O)(=O)N1CCC(NC(=O)C(Cc2ccc(OC)c(OC)c2)NC(C)=O)CC1 (configuration not stated),-0.5,6.0,7,-0.5,-8,1,-12,0.1
CCCCC(=O)NC(=S)NNC(=O)CCc1ccccc1,-1.4,-3.9,-6,-0.2,2,-2,-6,1.1
O=C(Nc1ccc(-c2nc3cccnc3s2)cc1)C1CCCO1 (configuration not stated),4.4,6.4,-1,-423,-5,-16,-4,-8.4
COc1ccc(CCNS(=O)(=O)c2ccc(C(=O)NCc3ccco3)cc2)cc1OC,1.8,1.1,-5,1.8,-2,.,-12,0.0
CC1=C(C(=O)OC(C)C)C(c2cncc(-c3ccc(F)cc3)c2)C(C#N)=C(N)O1 (configuration not stated),0.0,-3.0,-6,1.6,-11,-9,-7,0.5
Cc1[nH]c(-c2ccccn2)nc(=S)c1Cl,-2.6,1.4,-1,.,1,15,-13,-0.3
CC(C)(c1ccccc1)c1ccc(OCCN2CCOCC2)cc1,-3.9,0.9,1,2.3,13,-8,6,0.9
CC(NC(=O)c1ccccc1Cl)c1nnc(SCC(=O)Nc2ccc(C(=O)O)cc2)n1C (configuration not stated),-1.6,0.5,9,0.8,-3,-11,-3,1.5
Cc1cc(C)cc(OCC(=O)Nc2ccc(CN3CCCCC3)cc2)c1,1.7,-2.3,-14,4.4,2,-2,-5,0.4
NC(=O)c1nsc(C(=O)N(CC(=O)NCc2ccccc2)c2cccc(F)c2)c1N,1.6,-2.2,3,-26,2,-3,-6,0.4

# Compound activity: PubChem BioAssay, several laboratories
